# hNpr1 antagonist = antagonists of human natriuretic peptide receptor Npr1; Potency, µM (series often up to 46.3 µM), inactives show top-dose activity change, negative = inhibition, hits mostly inhibitors; HEK293 hNpr1 GloSensor cGMP, ANP-stimulated luminescence; 76,000 tested, 1.6% active; active = well fitted inhibition curve with a large enough effect; inconclusive = small, poorly fitted or top-dose-only effect; inactive = no such curve, though single readings can be large or run the other way;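 also: nearly all actives have a fitted effect of over 60% in size; nearly all hits also lower the signal before the agonist is added; a reference antagonist and vehicle were the controls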
# Target sequence (P16066 whole entry, looked up): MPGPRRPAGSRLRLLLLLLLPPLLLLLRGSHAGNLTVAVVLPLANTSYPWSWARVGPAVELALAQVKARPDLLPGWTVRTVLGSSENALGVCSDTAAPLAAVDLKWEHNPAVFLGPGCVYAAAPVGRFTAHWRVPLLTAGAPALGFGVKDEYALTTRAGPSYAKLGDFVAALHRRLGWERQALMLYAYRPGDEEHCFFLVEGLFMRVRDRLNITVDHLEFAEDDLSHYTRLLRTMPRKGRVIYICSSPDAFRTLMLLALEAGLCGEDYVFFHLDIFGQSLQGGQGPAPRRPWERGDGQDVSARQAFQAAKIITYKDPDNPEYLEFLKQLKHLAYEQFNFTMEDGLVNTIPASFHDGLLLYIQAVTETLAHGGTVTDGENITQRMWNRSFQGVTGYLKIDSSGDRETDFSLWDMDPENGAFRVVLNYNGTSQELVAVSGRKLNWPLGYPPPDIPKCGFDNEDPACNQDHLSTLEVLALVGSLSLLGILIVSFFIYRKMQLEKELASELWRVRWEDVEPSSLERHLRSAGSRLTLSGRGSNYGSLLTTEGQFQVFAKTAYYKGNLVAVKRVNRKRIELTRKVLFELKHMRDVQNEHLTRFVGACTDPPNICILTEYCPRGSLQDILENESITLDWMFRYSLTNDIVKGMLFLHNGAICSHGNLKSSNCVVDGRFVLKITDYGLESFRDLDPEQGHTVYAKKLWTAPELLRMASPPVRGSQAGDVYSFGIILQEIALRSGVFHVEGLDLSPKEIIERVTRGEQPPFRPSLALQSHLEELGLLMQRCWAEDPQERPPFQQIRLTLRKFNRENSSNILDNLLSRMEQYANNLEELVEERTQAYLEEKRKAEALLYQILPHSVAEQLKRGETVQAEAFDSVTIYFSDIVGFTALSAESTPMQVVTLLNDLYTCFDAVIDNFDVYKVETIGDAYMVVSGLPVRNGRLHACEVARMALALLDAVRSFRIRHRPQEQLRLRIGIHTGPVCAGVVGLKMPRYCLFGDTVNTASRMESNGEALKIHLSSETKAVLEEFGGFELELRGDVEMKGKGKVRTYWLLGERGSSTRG
#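 Compound pre-incubated 30 min at room temperature on GloSensor-loaded HEK293 cells stably carrying hNpr1 and the pGS-40F cGMP biosensor. Stimulation uses hNppA at 0.1 nM final; luminescence is taken at baseline and 20 min post-agonist.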
# Numbers without * were called inactive; ? = inconclusive; [ ] = remark or other dose. % is scaled to controls: 0 for no effect and ±100 for the full control effect; potency is read from the fitted curve at half-maximal effect. This is a subset, so the mix of outcomes need not match the whole.
hNpr1 antagonist,smiles
-2%,CNC(=O)Nc1ccc(C2(C(=O)N3CCN(c4ccccc4Cl)CC3)CCC2)cc1
3%[70.6 µM],O=C(O)C[C@@H]1CCN(C(=O)NC2CCCCC2)C[C@@H]1CCN1CCCCC1
-4%,O=C(C1CN(S(=O)(=O)c2cccs2)CC12CCCCC2)N1CCCC1 (configuration not stated)
3%,CC(C)NC(=O)C(NC(=O)c1ccc(F)cc1)C1CCN(C(=O)c2ccccc2F)CC1 (configuration not stated)
-3%,CCc1ccc(C(=O)N2CCC(n3cnnc3COC)CC2)cc1
15%,Cc1cn2nc(C(=O)NCCCc3ccccc3)cc2c(=O)[nH]1
-10%,CC(C)CCN1C(=O)CC[C@]2(C(=O)NCc3cccs3)CCCC[C@@H]12
2%,N#Cc1ccc(S(=O)(=O)N2CCc3n[nH]c(=O)n3CC2)cc1
-8%[70.6 µM],Cn1cc(-c2cnc3n[nH]c(-c4ccc5c(c4)OCO5)c3n2)cn1
3%,CN(C)C[C@@H]1CN(C)C[C@H]1NC(=O)c1ccc(Cn2ccnc2)o1
-7%,CC(=O)Oc1c(-c2ccc(NC(=O)C(C)C)cc2)c(-c2ccc(F)cc2)nn1-c1ccc(F)cc1
5%,CCc1ccccc1NC(=O)Cn1c(N2CCC(C)CC2)nc(C)cc1=O
-9%,O=C(CCc1ccc2c(c1)OCO2)N[C@H](c1ccccn1)C1CC(O)C1 (some centres not stated)
7%,O=C(Cn1nc2c(cc1=O)CCCC2)NCCn1cnc2ccccc2c1=O
-26%,CN(C)c1ccc(C(=O)N[C@H]2CO[C@H]3[C@@H]2OC[C@@H]3Nc2nccc(-c3cccs3)n2)cc1
2%,COCCCNC(=O)C1c2ccccc2C(=O)N(CC(C)C)C12CCCCC2 (configuration not stated)
-3%[70.6 µM],O=C(N[C@@H]1C[C@H](Cn2cc(C3CC3)nn2)[C@@H](O)[C@H]1O)c1cncnc1
0%,COc1ccc(OC)c(S(=O)(=O)Nc2nc3c(s2)C[C@]2(C)CC[C@@H]4[C@H](OC(=O)[C@H]4C)[C@H]2[C@@H]3C)c1
-3%,CC(C)NC(=O)CCc1cc2n(n1)CCN(Cc1cc(=O)[nH]c(=O)[nH]1)C2
-15%,COc1ccccc1CC(=O)NC1CCN(c2cc(-c3ccccc3)[nH]n2)C1 (configuration not stated)
1%,Cc1cccc(CN2C(=O)C3(CCOCC3)CC2c2nnnn2C(C)(C)C)c1 (configuration not stated)
2%[70.6 µM],O=C(C[C@@H]1O[C@H](CNCc2ccc(F)cc2)[C@@H](O)[C@H]1O)NCCN1CCOCC1
2%[70.6 µM],COC(=O)c1ccc(CN2C(=O)[C@@H]3C[C@@H](O)CN3C3(CNC3)C2=O)cc1
5%,CNC(=O)c1[nH]nc2c1C(c1cc(OC)ccc1-n1cccn1)CC(=O)N2 (configuration not stated)

# The list goes on; the last 2 above are carried over.
hNpr1 antagonist,smiles
2%[70.6 µM],COC(=O)c1ccc(CN2C(=O)[C@@H]3C[C@@H](O)CN3C3(CNC3)C2=O)cc1
5%,CNC(=O)c1[nH]nc2c1C(c1cc(OC)ccc1-n1cccn1)CC(=O)N2 (configuration not stated)
-2%,O=C1CCN(C(=O)C2(c3ccccc3)CC2)CCCOCCN1
-23%,CN1CCCN(S(=O)(=O)c2cccc(Br)c2)c2ccccc21
0%,CCCS(=O)(=O)N1CCCC1c1noc(CCC(=O)N2CCN(C)CC2)n1 (configuration not stated)
12%,Cc1nc2c(c(-c3ccc(Cl)cc3)n1)CN([S+](=O)([O-])c1ccsc1)CC2
-3%,Cc1ccc(NC(=O)Cn2c(-c3cnccn3)nc(C)c(CCO)c2=O)cc1
0%,COC1C(=O)N(CC2CC2)C12CCN(C(=O)C1CCOCC1)CC2 (configuration not stated)
0%[70.6 µM],COc1cccc(N2C(=O)[C@@H]3C[C@@H](NC(=O)c4snnc4C)CCN3C2=O)c1
-1%,O=C(N1CCN(Cc2ccccc2)CC(O)C1)C1(N2CCCC2)CCCC1 (configuration not stated)
1%,CCCS(=O)(=O)N1CCc2nnc(C3CC3)n2CC1
-1%,COc1ccc(C(=O)N2CCC3(CCC3OC)CC2)cn1 (configuration not stated)
0%,CCOCCOC1CCN(C(=O)c2ccc3[nH]ccc3c2)CC1
5%,COc1ccc2[nH]c3c(c2c1)CCN(C)C31CCN(C(=O)c2cccs2)CC1
35µM*,O=C(c1ccn[nH]1)N1CCCCC1c1nc(CCOCC2CCCC2)no1 (configuration not stated)
-7%,CCCS(=O)(=O)N1CCC(N2CC(OCCOC)C23CCCCC3)CC1 (configuration not stated)
?,COc1ccc(CN2C=C(C(=O)OCc3nc(-c4cccs4)no3)C(C)=NS2(=O)=O)cc1
-1%,CC(C)c1noc(-c2cn(C3CCN(C(=O)c4ccc[nH]4)C3)nn2)n1 (configuration not stated)
6%,Cc1nc2cc(-c3nc(CC4CCN(C)CC4)nn3CCO)ccc2s1
-3%,Cc1cccc(NC(=O)Cn2c(C)cc3nc4n(c(=O)c32)CCCCC4)c1C
-13%,COc1cccc(CNC(=O)C2Cn3cccc3C(=O)N2Cc2ccccc2)c1 (configuration not stated)
8%,CCCc1noc(-c2ccn3c(CNC(=O)CCC4CCCC4)nnc3c2)n1
-26%[70.6 µM],CN(C)c1ccc(C(=O)N[C@H]2CO[C@H]3[C@@H]2OC[C@@H]3n2cc(-c3ccccn3)nn2)cc1
-1%,CCc1nc(-c2c3n(c(=O)n(CC(=O)Nc4cccc(Cl)c4C)c2=O)CCCC3)no1
-18%,Cc1ccsc1C(=O)N1CCC2(CC1)N(C)C(=O)CS2(=O)=O
-1%,COCC(=O)N1CCC(Cc2ccc(C(N)=O)cc2)CC1

# Some values from the results shown:
# hNpr1 antagonist result of N#Cc1ccc(S(=O)(=O)N2CCc3n[nH]c(=O)n3CC2)cc1 : 2%
# hNpr1 antagonist result of O=C(N[C@@H]1C[C@H](Cn2cc(C3CC3)nn2)[C@@H](O)[C@H]1O)c1cncnc1 : -3%[70.6 µM]
# hNpr1 antagonist result of COc1ccc2[nH]c3c(c2c1)CCN(C)C31CCN(C(=O)c2cccs2)CC1 : 5%
# hNpr1 antagonist result of O=C(C1CN(S(=O)(=O)c2cccs2)CC12CCCCC2)N1CCCC1 (configuration not stated) : -4%
# hNpr1 antagonist result of Cc1cccc(CN2C(=O)C3(CCOCC3)CC2c2nnnn2C(C)(C)C)c1 (configuration not stated) : 1%
# hNpr1 antagonist result of CCCS(=O)(=O)N1CCC(N2CC(OCCOC)C23CCCCC3)CC1 (configuration not stated) : -7%
# hNpr1 antagonist result of O=C(N1CCN(Cc2ccccc2)CC(O)C1)C1(N2CCCC2)CCCC1 (configuration not stated) : -1%

# (cont.)
hNpr1 antagonist,smiles
-3%,CN(CCc1noc(C2CN(Cc3ccc(F)c(F)c3)C2)n1)C(=O)C1CC1
-2%,COc1cccc(C(=O)N2CCC(Oc3ncccc3C(=O)N3CCCCC3)C2)c1 (configuration not stated)
-2%,NC(=O)[C@@H](Cc1c[nH]c2ccccc12)NC(=O)[C@@H]1C[C@@H](NS(=O)(=O)c2cccs2)CCN1C(=O)COCC(=O)O
2%,COCCNC(=O)c1ccc(OC2CCN(S(C)(=O)=O)CC2)c(Cl)c1
0%,Cc1cnc(CC2CCCN(C(=O)C3CC3)C2)n1C(C)C (configuration not stated)
-1%,Cc1cc2ncc(C(=O)N3CCCn4nc(CCC(=O)O)cc4C3)c(=O)n2[nH]1
-1%,COc1ccc(CNc2nccc(CCC(F)(F)F)n2)cc1OC
-5%,O=C(c1cc(COc2c(F)cccc2F)on1)N1CCCCC1CCc1ccccc1 (configuration not stated)
2%,CCC(=O)N1CCc2cn(C)c3cccc(c23)C1
7%,COc1ccc(CN(C)CC2CCN(C)C2(C)C)cc1C(=O)O (configuration not stated)
-4%,COc1ccc(CN2C(=O)COC[C@H]2C(=O)NCc2ccc(Cl)cc2)c(OC)c1
-22%,CN1[C@@H](CCC(=O)N2CCN(c3ccccc3)CC2)CNC(=O)[C@@H]2[C@H]1CCN2Cc1ccccc1
7%,COc1cccc(CNC(=O)Cn2cccc2-c2nc(-c3ccc4c(c3)OCO4)no2)c1
6%,COCc1nncn1C1CCN(S(=O)(=O)c2ccc(F)c(Cl)c2)CC1
-1%,COc1ccc(-c2cc(N3CCN(C(=O)c4ccc(C#N)cc4)CC3)n[nH]2)cc1
-3%,COc1cccc(C(=O)NCC2CCCN(Cc3ccccn3)C2)c1OC (configuration not stated)
4%,Cc1nc([C@H]2CCN(Cc3ccc(F)cc3F)C[C@H]2NC(=O)CN(C)C)n[nH]1
3%,Cc1cnc(C2CC2)n1C1CCCN(C(=O)c2ccoc2)C1 (configuration not stated)
-11%,Cc1ccc(C(=O)NC2CCCN(c3cc(N(C)C)ncn3)C2)s1 (configuration not stated)
-22%,CN1c2cc(C(=O)Nc3ccc4c(c3)OCCO4)ccc2C(=O)N2CCCCC21 (configuration not stated)
-1%[70.6 µM],Cc1ccc(S(=O)(=O)N[C@H]2C[C@@H](c3nc(C(C)C)no3)N(C)C2)cc1
-7%,COc1cc(Cl)ccc1C(=O)N1CCC(c2n[nH]c(=O)n2Cc2ccc(F)cc2)CC1
-2%,O=C(CCn1ccc(=O)[nH]c1=O)N[C@@H]1COCC[C@@H]1OCc1ccccc1
6%,COC(=O)C1=C(C)NC(=O)NC1c1ccc(OC)cc1 (configuration not stated)
11%,O=C(c1ccccc1Cl)N1CCC(c2nn(Cc3ccccc3)c(=O)[nH]2)CC1
-6%,Cc1ccccc1C(=O)N1CCC(CCC(=O)O)CC1
4%,CN(C)c1ccc(C(=O)N2CC[C@@H](CC(=O)O)[C@@H](CCN3C[C@@H]4C[C@H](C3)c3cccc(=O)n3C4)C2)cc1
-1%,O=C(Nc1cccc(C(F)(F)F)c1)N[C@H]1CO[C@H]2[C@@H]1OC[C@@H]2n1cc(-c2ccccn2)nn1
1%[70.6 µM],NC(=O)[C@@H]1CCCN1CC[C@H]1CN(C(=O)COc2ccccc2)CC[C@H]1CC(=O)O
1%,O=C(CC1CCOCC1)NCc1cc(F)ccc1F
21%,COc1ccc(C(=O)N2CCC3(CN[S+](=O)([O-])c4ccccc4N3)C2)cc1 (configuration not stated)
0%,Cc1noc([C@@H]2CN(C(=O)c3ccc(F)c(Cl)c3)C[C@H]2CO)n1
3%,COCCc1nncn1C1CCNCC1
0%,Cc1ccccc1C(=O)N1CCCC(c2nn(-c3ccc(F)cc3)c(=O)[nH]2)C1 (configuration not stated)
3%[70.6 µM],O=C(NC[C@H]1OC[C@@H](NC2CCC2)[C@@H]1O)N1CCOCC1
-22%,CC(C)CCNC(=O)CC1CCCN(c2cnn(C)c(=O)c2)C1 (configuration not stated)

# Rewritten field by field: 4 of the compounds above
O=C(CC1CCOCC1)NCc1cc(F)ccc1F
  hNpr1 antagonist: 1%
O=C(c1ccccc1Cl)N1CCC(c2nn(Cc3ccccc3)c(=O)[nH]2)CC1
  hNpr1 antagonist: 11%
COc1ccc(C(=O)N2CCC3(CN[S+](=O)([O-])c4ccccc4N3)C2)cc1 (configuration not stated)
  hNpr1 antagonist: 21%
CN(C)c1ccc(C(=O)N2CC[C@@H](CC(=O)O)[C@@H](CCN3C[C@@H]4C[C@H](C3)c3cccc(=O)n3C4)C2)cc1
  hNpr1 antagonist: 4%

# At a glance, part of the list above:
hNpr1 antagonist,smiles
-3%,Cc1cccc(NC(=O)Cn2c(C)cc3nc4n(c(=O)c32)CCCCC4)c1C
-13%,COc1cccc(CNC(=O)C2Cn3cccc3C(=O)N2Cc2ccccc2)c1 (configuration not stated)

# New compounds follow.
hNpr1 antagonist,smiles
-1%,CCN(Cc1noc(CC(C)C)n1)C(=O)c1cnc(-c2ccccn2)[nH]c1=O
-6%[70.6 µM],COc1ccc(CN2CCOC[C@H]2c2ncc(-c3cccnc3)[nH]2)cc1
4%,Cc1cccc(CN2C[C@@H](CO)[C@H](c3nc(C)no3)C2)c1
-1%,CNC(=O)[C@H]1C[C@H](Oc2ccccc2)CN1C(=O)CCc1nc2ccccc2[nH]1
-30%,CCCCN1CCN(C(=O)c2csc(N3CCN(c4cccc(Cl)c4)CC3)n2)CC1
0%,CCN(CC)C(=O)Cn1c(C)ccc(NS(=O)(=O)c2ccc(C)cc2)c1=O
5%,CN(C)C[C@@H]1CN(c2ccccn2)C[C@H]1NC(=O)c1ccsc1
-20%,O=C1CCCCCN1C1CCN(Cc2ccc(OC(F)(F)F)cc2)CC1
-20%,O=C(NCCc1cccs1)c1cccc2c1CCN2C(=O)Nc1ccccc1
4%[70.6 µM],CC(C)N1CCC(O)(c2csc(CN3CCc4ccccc4C3)n2)CC1
-19%,Cc1cc(C)n(CCC(=O)N2CC(c3noc(COc4ccc(F)cc4)n3)C2)n1
5%,CCn1ccc(C(=O)N2CC(C(=O)NCCc3ccncc3)C3(CCOCC3)C2)n1 (configuration not stated)
-13%[70.6 µM],COc1ccc(-c2cc(-c3cnn(C)c3)cn3cncc23)cn1
1%,CCCC1(CO)CCCN(C(=O)C2CCC(CO)CC2)C1 (configuration not stated)
-7%,CC(=O)c1cccc(NC(=O)Cn2nc3c(cc2=O)CN(C(C)=O)CC3)c1
-25%,Cc1ccc(-c2ncc(C(=O)Nc3cccc(F)c3C)c(-c3ccncc3)n2)cc1
3%,COc1ccccc1CN[C@H]1Cc2ccc(cc2)Nc2cc(ccc2OC)C[C@H](C(=O)NCc2ccccc2)N(C)C1=O
2%,Cc1ccc(C(=O)N2C(C(=O)N3CCOCC3)COC23CCN(C(=O)c2ccc(F)cc2)CC3)cc1 (configuration not stated)
8%,COc1ccc(CN2CCc3nc(C4CC4)nc(-c4ccc(O)cc4)c3CC2)cc1
0%[70.6 µM],O=S(=O)(c1ccc(F)cc1)N1CCOC[C@H](Oc2cnccn2)C1
5%[70.6 µM],N#Cc1cccc(C(=O)N[C@H]2[C@H](O)[C@H](O)C[C@@H]2c2cccnc2)c1
1%[70.6 µM],Cc1cccc(OCC2(CNCC3CC3)C[C@@H](O)[C@@H](O)C2)n1 (some centres not stated)
2%,CCn1nccc1C(=O)N1CCCC(c2nc(-c3ccccc3)no2)CCNC(=O)CC1 (configuration not stated)
